VACV mCherry inh = inhibitors of vaccinia virus infection (mCherry reporter signal). Vaccinia virus mCherry reporter infection, fluorescence; about a quarter of the inactives have no number. Potency, µM (highest dose often 36.5 µM), inactives show at the highest dose activity change, negative = inhibition, usual class: inhibitors. 310,000 compounds, 0.63% hits. AID 720579; active = well fitted inhibition curve with a large enough effect; inconclusive = small, poorly fitted or top-dose-only effect; inactive = no such curve, though single readings can be large or run the other way; tested in A549 cells; note: nearly all actives have a fitted effect of over 35% in size; inactives centre near -10
VACV Venus inh = vaccinia inhibition (Venus reporter) | Vaccinia virus Venus reporter expression, fluorescence | AID 720580 | Potency, µM (highest dose often 36.5 µM), for the others: top-dose activity change, negative = inhibition, hits mostly inhibitors | 330,000 compounds, 0.46% hits; active means well fitted inhibition curve with a large enough effect; inconclusive means small, poorly fitted or top-dose-only effect; inactive means no such curve, though single readings can be large or run the other way; tested in A549 cells; note: nearly all actives have a fitted effect of over 30% in size; inactives centre near -10
The depositor's hits bear a star; i = inactive; ? = inconclusive; . = not tested or not shown; & = joins results of further samples; [ ] = dose if it differs, or a comment. % is set by controls: 0 for no effect and ±100 for the full control effect; potency is the fitted concentration of half-maximal effect. Outcome played no part in choosing rows, and some 0.88% of all compounds hit somewhere here.

Under each structure – VACV Venus inh	VACV mCherry inh
Cn1ccc2c(N3CCCCC3)cc3c(c21)C1CCC3O1 (configuration not stated)
→ -2.5%	i
Cc1noc(C)c1C(=O)N1CCCC(C(=O)c2ccc(Cl)cc2)C1 (configuration not stated)
→ 2.7%	i
O=C(COc1ccc(S(=O)(=O)N2CCOCC2)cc1Cl)NCCN1CCOCC1
→ -3.9%	-25.0%
O=C(Nc1cc(Cl)ccc1-n1cncn1)c1cccs1
→ -6.1%	-0.7%
OC(CNCCC(c1ccccc1)c1ccccc1)COc1ccccc1 (configuration not stated)
→ ?	?
COc1ccc(CNC(=O)CN(c2ccc(C)cc2)S(=O)(=O)c2c(C)n[nH]c2C)cc1
→ -9.0%	-7.1%
CC(Nc1nc(-c2cccc(Br)c2)cs1)c1nc2cc(Cl)c(N3CCCCC3)cc2n1CCOCCO (configuration not stated)
→ ?	?
CC(C(=O)OCC(=O)c1ccc([N+](=O)[O-])cc1)N1C(=O)C2C3C=CC(C3)C2C1=O (configuration not stated)
→ -8.0%	i
NCC(=O)NCC(=O)NC1(C(=O)O)CCCC1
→ 2.8%	-12.0%
CCCC(=O)Nc1nc2nc(C)cc(=O)n2[nH]1
→ -15.8%	.
Cc1ccc2c(c1)-c1nc(-c3ccc4c(c3)NC(=O)CO4)cc(-c3ccc(Cl)cc3)c1CO2
→ -19.1%	-20.3%
Cc1ccc(OCC(=O)Nc2cccc3nsnc23)c(C)c1
→ -10.1%	.
Cc1ccc(NC(=S)NNC(C)(C)C)cc1
→ -6.7%	-7.1%
CC(C)c1ccc(/C=N/NC(=O)c2c(Cl)cnn2C)cc1
→ -12.5%	-0.5%
Cc1cc(C(=O)Nc2ccncc2)c(C)o1
→ -24.0%	-5.6%
CC(C)COP(=O)(OCC(C)C)C(O)c1ccc(N(C)C)cc1 (configuration not stated)
→ -6.1%	-5.5%
CC(C)(O)C1C2OC(=O)C1C1(O)CC3OC34C(=O)OC2C14C (configuration not stated)
→ -5.8%	-13.4%
CCOC(=O)C1CCN(C(=O)CCNC(=O)Cn2cnc3ccccc3c2=O)CC1
→ -5.3%	-14.5%
Cc1cc(C)n(Cc2cccc(C(=O)N/N=C/c3ccncc3)c2)n1
→ -7.6%	i
COc1ccc(N=Nc2c(O)[nH]c(=S)[nH]c2=O)cc1
→ -2.2%	-16.3%
Cc1cccc(C(=O)O)c1NC(=O)c1ccc(F)cc1
→ -1.5%	-1.9%
Cc1cnc(NC(=O)C2CCCO2)s1 (configuration not stated)
→ -8.5%	-12.6%
CCOc1ccccc1N(C(=O)c1snc(C(N)=O)c1N)C(C(=O)NCc1ccccc1)c1ccc(O)cc1 (configuration not stated)
→ -12.6%	-16.4%
COc1ccc(NC(=O)c2oc3ccccc3c2NC(=O)COc2ccc(C(C)C)cc2)c(OC)c1
→ 5.0%	3.3%
CC(C)(C)OC(=O)CNC(=O)c1[nH]cnc1C(=O)NCC(=O)OCc1ccccc1
→ -7.0%	i
Cc1cc(C)c(S(=O)(=O)N2CCN(S(=O)(=O)N3CCOCC3)CC2)c(C)c1
→ -8.0%	-12.0%
O=C(Nc1ccc(F)cc1)N1CCN(C/C=C/c2ccccc2)CC1
→ -8.3%	-28.5%
Cc1nc2ccccc2c2nc3ccccc3n12
→ -0.1%	6.1%
N#Cc1ccccc1CSc1nnc(-c2ccc(Br)cc2)o1
→ -5.3%	1.7%
Cc1ccc(OCCCCN2CCCCC2)c(Br)c1
→ -24.3%	-5.8%
COc1ccc(CNc2oc(-c3cccc4ccccc34)nc2P(=O)(OC)OC)cc1
→ -10.4%	-5.0%
CC1CCCCN1CCCNc1ccc(C(CC(N)=O)NC(=O)Cc2cccc3ccccc23)cc1[N+](=O)[O-] (configuration not stated)
→ -2.7%	i
Cc1cc(O)c(C(=O)Cc2csc(C)n2)c(O)c1
→ -15.0%	-2.7%
O=C(CCSCCC(=O)Nc1ccccc1F)Nc1ccccc1F
→ -4.2%	i
CCOc1ccccc1NS(=O)(=O)c1ccc2[nH]c3c(c2c1)CCCCC3
→ -13.0%	-19.7%
O=C1[C@H]2[C@H](C=CC[C@H]2C(=O)N2CCN(c3ccccc3)CC2)CCN1Cc1ccccc1
→ -19.7%&-11.3%	-27.7%&-22.7%
N#Cc1nc(-c2ccc(COc3ccc(Cl)cc3)o2)oc1N1CCN(c2ccccc2)CC1
→ -7.2%	-17.4%
COc1cccc(CN(C)C(=O)CSCC(=O)Nc2cc(C)on2)c1OC
→ -4.8%	i
COc1ccc(OC)c(C2C3=C(CC(C)(C)CC3=O)Nc3nnnn32)c1 (configuration not stated)
→ -15.3%	-11.7%
CC(=O)Nc1ccc2c(c1)OCCOCCOc1cc(NC(C)=O)ccc1OCCO2
→ -7.0%	?
CC(C(=O)Nc1cccnc1)N1C(=O)c2ccccc2C1=O (configuration not stated)
→ -9.0%	-13.1%
O=C1NC(Cc2ccc(O)cc2)c2nc3cc(Cl)ccc3c(=O)n2-c2cc(Cl)ccc21 (configuration not stated)
→ ?	?
CCN1CCSc2ccc(C(=O)NCc3ccc(OC)cc3)cc21
→ -3.7%[7.34 µM]	-7.0%[7.34 µM]
COc1ccc(S(=O)(=O)NCC(c2cccnc2)N2CCN(C)CC2)cc1C (configuration not stated)
→ -5.4%	31.1%[activator]
COc1ccc(CCN(C)CC(O)COC(c2ccc(F)cc2)c2ccc(F)cc2)cc1OC (configuration not stated)
→ -26.6%	i
COc1ccc(N(CC(=O)NCCc2ccc(Cl)cc2)S(=O)(=O)c2c(C)[nH]c(=O)[nH]c2=O)cc1
→ -13.7%	-0.6%
COC(=O)c1ccc(C(=O)NC(=S)Nc2ccc3nc(SC)sc3c2)cc1
→ -8.7%	-16.7%
CCN1CCN(CCCNC(=O)Cn2c(-c3cccs3)cc3cc(F)ccc32)CC1
→ -2.3%	2.5%
N#CCCN(Cc1ccccc1)C(=S)Nc1ccccc1
→ -18.0%	-25.0%
Cc1cc2cc3c(cc2nc1SCC(=O)N1CCCC1)OCCO3
→ -12.0%	i
C=CC[C@@H](CC(=O)OC(C)(C)C)C(=O)OC[C@@H]1CCCN1C(=O)[C@@H](CC=C)CC(=O)N(CCO)Cc1ccccc1
→ -28.4%	-14.5%
CCCS(=O)(=O)NC(=O)C1(C)CCCN(C(=O)c2cccc(C(F)(F)F)c2)C1 (configuration not stated)
→ 3.1%	24.6%
CCCc1nnc(SCC(=O)NC2CCCC2)n1CCOC
→ 5.6%	-15.4%
Cc1ccc(Cc2c(C)nc3nc(SCC(=O)NCCCN4CCCCC4)nn3c2C)cc1
→ -4.6%	-1.3%
COc1ccc(N2C(=O)CSC(c3ccccc3)C2=O)cc1 (configuration not stated)
→ -0.5%	-8.7%
COc1ccc(CCC(=O)NNC(=O)c2ccc(F)cc2)cc1
→ -1.8%	-12.0%
O=C(CSC1=NS(=O)(=O)c2cc(F)ccc2N1)Nc1cccc(F)c1
→ -15.0%	-19.4%
CCc1nc2c(OCc3ccc(C(F)(F)F)cc3)cccn2c1N(C)C(=O)C1CC1
→ ?	-23.4%
O=C(NCc1ccco1)Nc1ccccc1Cl
→ -13.3%	-16.2%
CC(C)CCNc1nc2c(S(=O)(=O)c3ccc(Br)cc3)nnn2c2ccsc12
→ -23.7%	-21.9%

19 structures out of the list, ordered by heavy-atom count, lowest first.
Under each structure – VACV Venus inh	VACV mCherry inh
Cc1cc(C(=O)Nc2ccncc2)c(C)o1
→ -24.0%	-5.6%
O=C(NCc1ccco1)Nc1ccccc1Cl
→ -13.3%	-16.2%
Cc1cc(O)c(C(=O)Cc2csc(C)n2)c(O)c1
→ -15.0%	-2.7%
COc1ccc(N=Nc2c(O)[nH]c(=S)[nH]c2=O)cc1
→ -2.2%	-16.3%
N#CCCN(Cc1ccccc1)C(=S)Nc1ccccc1
→ -18.0%	-25.0%
Cc1ccc(OCC(=O)Nc2cccc3nsnc23)c(C)c1
→ -10.1%	.
CC(C)COP(=O)(OCC(C)C)C(O)c1ccc(N(C)C)cc1 (configuration not stated)
→ -6.1%	-5.5%
CCN1CCSc2ccc(C(=O)NCc3ccc(OC)cc3)cc21
→ -3.7%[7.34 µM]	-7.0%[7.34 µM]
Cc1cc(C)n(Cc2cccc(C(=O)N/N=C/c3ccncc3)c2)n1
→ -7.6%	i
COc1ccc(OC)c(C2C3=C(CC(C)(C)CC3=O)Nc3nnnn32)c1 (configuration not stated)
→ -15.3%	-11.7%
Cc1cc(C)c(S(=O)(=O)N2CCN(S(=O)(=O)N3CCOCC3)CC2)c(C)c1
→ -8.0%	-12.0%
COc1ccc(S(=O)(=O)NCC(c2cccnc2)N2CCN(C)CC2)cc1C (configuration not stated)
→ -5.4%	31.1%[activator]
CC(C(=O)OCC(=O)c1ccc([N+](=O)[O-])cc1)N1C(=O)C2C3C=CC(C3)C2C1=O (configuration not stated)
→ -8.0%	i
CC(=O)Nc1ccc2c(c1)OCCOCCOc1cc(NC(C)=O)ccc1OCCO2
→ -7.0%	?
N#Cc1nc(-c2ccc(COc3ccc(Cl)cc3)o2)oc1N1CCN(c2ccccc2)CC1
→ -7.2%	-17.4%
COc1ccc(CCN(C)CC(O)COC(c2ccc(F)cc2)c2ccc(F)cc2)cc1OC (configuration not stated)
→ -26.6%	i
COc1ccc(NC(=O)c2oc3ccccc3c2NC(=O)COc2ccc(C(C)C)cc2)c(OC)c1
→ 5.0%	3.3%
CCOc1ccccc1N(C(=O)c1snc(C(N)=O)c1N)C(C(=O)NCc1ccccc1)c1ccc(O)cc1 (configuration not stated)
→ -12.6%	-16.4%
C=CC[C@@H](CC(=O)OC(C)(C)C)C(=O)OC[C@@H]1CCCN1C(=O)[C@@H](CC=C)CC(=O)N(CCO)Cc1ccccc1
→ -28.4%	-14.5%

(listing goes on)
Under each structure – VACV Venus inh	VACV mCherry inh
O=[N+]([O-])c1cccc(-c2cn3ccccc3n2)c1
→ 1.0%	-3.0%
Cc1cc(C)cc(NC(=O)CCN2CCCC2)c1
→ -11.2%	i
CCCn1c(SCC(=O)N2c3ccccc3Sc3ccccc32)nc2ccccc21
→ -12.9%	?
C[C@@H]1CN([C@H](C)CO)C(=O)CCCn2cc(nn2)CO[C@H]1CN(C)C(=O)c1cc(-c2ccccc2)on1
→ -13.6%	-21.3%
O=C(Nc1ccc(C(=O)N2CCOCC2)cc1)c1cc(-c2cccnc2)nc2ccc(Cl)cc12
→ -13.6%	-5.7%
COc1ccccc1NS(=O)(=O)c1cccc(NC(=O)c2sc3ccccc3c2Cl)c1
→ -7.5%	-18.4%
CCCC(=O)NC(=S)Nc1cccc(NC(=O)c2ccccc2Cl)c1
→ -11.0%	-2.9%
COc1cc(OC)cc(C(=O)NCC(=O)OCC(=O)NC(C)(C)C)c1
→ -12.2%	-8.1%
Cc1cccnc1CC(C)NC(=O)c1cc(COc2cncc(Cl)c2)on1 (configuration not stated)
→ -7.4%	-28.4%
COc1ccccc1N(C(=O)c1snc(C(N)=O)c1N)C(C(=O)NCc1ccccc1)c1ccc(C)o1 (configuration not stated)
→ -7.3%	-0.9%
COc1ccc(CC2(CO)CCN(S(=O)(=O)N(C)C)CC2)cc1
→ -11.9%	-4.3%
OC(CNCc1ccccc1)c1ccccc1 (configuration not stated)
→ -10.8%	i
O=C1C2CC=CCC2C(=O)N1c1nccs1 (configuration not stated)
→ -6.1%	-6.8%
Cc1ccc(S(=O)(=O)N/N=C\c2ccc([N+](=O)[O-])o2)cc1C
→ -5.0%	-7.0%
Cc1nc(NCc2ccc(S(N)(=O)=O)cc2)c2c(C)c(C)sc2n1
→ -9.9%	22.9%
CCOc1ccccc1NC(=O)CN(c1cc(C)cc(C)c1)S(=O)(=O)c1c(C)noc1C
→ -13.8%	33.5%[activator]
CCn1c(SCc2ccc(Cl)cc2)nc2nc3c(cc2c1=O)CCCC3
→ -9.0%	-0.1%
O=C(Nc1ccc(C(=O)O)cc1)/C(=C\c1ccccc1)NC(=O)c1ccco1
→ -3.2%	-5.1%
CC1CCCCC12NC(=O)N(CC(=O)Nc1cccnc1)C2=O (configuration not stated)
→ -5.4%	-0.5%
CC(=O)Nc1cccc(OCCCOc2ccc([N+](=O)[O-])cc2)c1
→ -11.6%	-7.7%
CCN(Cc1ccccc1)S(=O)(=O)c1ccc(F)c(C(=O)Nc2ccc(C(C)C)cc2)c1
→ -22.6%	-24.2%
Cc1ccc(CN2CCN(C3CCN(C(=O)c4ccccc4)CC3)C(=O)C2=O)cc1
→ -20.9%	-28.9%
CN(C(=O)c1ccc2c(c1)C(=O)N(CCC1=CCCCC1)C2=O)C1CCCCC1
→ -13.8%	i
O=C(OCCNc1ncc(C(F)(F)F)cc1Cl)c1ccc(S(=O)(=O)N2CCOCC2)cc1
→ -6.2%	-5.6%
COc1cc(NC(=O)C(Cc2ccccc2)NS(=O)(=O)c2cccc3nsnc23)cc(OC)c1 (configuration not stated)
→ -6.6%	2.6%
Cc1ccc(-c2csc3nc(CN(C)Cc4ccccc4)[nH]c(=O)c23)cc1
→ -14.6%	-14.0%
Cc1cc(C)c2nc(Cl)c(CN(Cc3ccco3)C(=O)Nc3ccccc3C)cc2c1
→ ?	-25.9%
CC(C)CN(Cc1c(O)ccc2c3c(c(=O)oc12)CCC3)CC(C)C
→ -18.3%	-24.6%
C[C@H](CO)N1C[C@H](C)[C@H](CN(C)S(=O)(=O)c2cccc(C#N)c2)OCc2cnnn2CCCC1=O
→ -5.6%	-7.2%
Cn1c(=O)c2c(nc(Sc3ncnn3CC(=O)NC(C)(C)C)n2C)n(C)c1=O
→ -5.2%	i

Screening results as filed in PubChem.
